Assay outcomes deposited in PubChem by several laboratories.
BJeLR viability: BJeLR cell viability loss. BJeLR (HRASV12) viability, CellTiter-Glo ATP luminescence, 48 h; reference of the scale not given here. inhibition, % (test concentration not listed). actives 0.17% (n = 300,000);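 active = replicate mean above 50%; inconclusive = above 50% but judged a plate artefact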;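 also: 50 nL library stock added to about 25 µL; numbers are from one replicate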
Sa RN4220 lethal: S. aureus RN4220 growth inhibition; OD600, 16 h; inhibition, % (no concentration beside the values); actives 0.33% (n = 330,000); AID 1259311;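 active = z-score of -3 or lower and OD600 up to 0.18 on both plates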;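 also: plate controls were untreated cells for no effect and reference antibiotic for full effect; stock transfer was 100 nL into about 80 µL; one replicate is shown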
Sa ugtP lethal: kills S. aureus RN4220 lacking UgtP; actives 0.54% (n = 330,000); growth inhibition, % (concentration not given with the values); S. aureus RN4220 ugtP deletion, OD600 growth, 16 h; some inactives read as strong as hits; AID 1259309;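 active = z-score under -3 and OD600 up to 0.15 on both plates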;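 also: plate controls were untreated wells for no effect and antibiotic for full effect; wells of about 80 µL received 100 nL stock; the first replicate is given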
Autofluor counter: counter-screen for toxin protease inhibitors: compound fluorescence. compound autofluorescence counterscreen, microsphere flow cytometry; active compounds read high. fluorescence intensity (concentration not given with the values). actives 3.1% (n = 360,000). AID 624483;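 active = at least 3 SD above the mean of all compounds, about 16000 in these data; inconclusive = too few beads counted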;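 also: 100 nL of 1 mM stock went into each well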
Mtb hypoxia inh: reduces hypoxia-regulated biosensor signal in M. tuberculosis. actives 0.1% (n = 300,000). AID 1159583. M. tuberculosis hypoxia-regulated fluorescent reporter, fluorescence. fluorescence inhibition, % (test concentration not listed);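 active = 35 to 45% if threefold the growth effect, above 45% if 1.5-fold the growth effect; inactive = the rest, general growth blockers included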;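 also: wells of about 50 µL received 100 nL stock; 0% = vehicle wells and 100% = reference inhibitor wells; whole bacteria with a GFP reporter of the hypoxia response; strong numbers were not always called active; many hits fall short of the cut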
PrP 5UTR inh: suppresses PrP 5' UTR mRNA reporter expression. cell-based PrP 5' UTR mRNA reporter, plate reader. inhibition, % (concentration not given with the values). actives 0.35% (n = 340,000);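 active = every replicate at 50% or more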;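 also: 0 = median of the neutral control wells; tested in H4 reporter cells; numbers are from one replicate; inactives centre near -14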
Mtb hypoxia inh growth: further read-out of Mtb hypoxia inh, marked with its call; growth inhibition, %; measured here: M. tuberculosis growth (absorbance);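 0% = vehicle and 100% = reference antibiotic; read after six days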
Starred values were filed as active, the others as inactive; ? = inconclusive; . = not tested or not shown; & = joins results of further samples.

The opening 7 entries as a preview:
SMILES	BJeLR viability	Sa RN4220 lethal	Sa ugtP lethal	Autofluor counter	Mtb hypoxia inh	Mtb hypoxia inh growth	PrP 5UTR inh
Cc1ccc(C(=O)NC(C)c2ccc(-n3ccnc3)cc2)o1 (stereo not drawn)	5	-1.6	-1	?	4	2	-12
CN(CC(=O)Nc1ccc(Cl)cc1)C(=O)CCc1nc2sc3c(c2c(=O)[nH]1)CCCC3	-11	8.7	7	.	6	4	-22
CC(=O)Nc1ccc(S(=O)(=O)Nc2cccc(NC(=O)C(C)(C)C)c2)cc1	5	-0.7	-2	3111	4	20	-9
COC(=O)[C@@H](NC(=O)NCc1ccccc1F)C(C)C	0	4.1	10	9143	8	4	-8
Cc1ccc(NC2CCCN(C(=O)c3ccnc(Cl)c3)C2)cc1C (stereo not drawn)	-10	1.6	6	5439	2	-3	-2
CC1CCC(NC(=O)CN(C)S(=O)(=O)c2cccc3cccnc23)CC1 (stereo not drawn)	16	3.2	2	3525	14	7	-14
OC(COCc1ccccc1)CN1CCCC1 (stereo not drawn)	-3	7.4	-3	10765	15	0	-18

All compounds of this part, repeating the preview:
SMILES	BJeLR viability	Sa RN4220 lethal	Sa ugtP lethal	Autofluor counter	Mtb hypoxia inh	Mtb hypoxia inh growth	PrP 5UTR inh
Cc1ccc(C(=O)NC(C)c2ccc(-n3ccnc3)cc2)o1 (stereo not drawn)	5	-1.6	-1	?	4	2	-12
CN(CC(=O)Nc1ccc(Cl)cc1)C(=O)CCc1nc2sc3c(c2c(=O)[nH]1)CCCC3	-11	8.7	7	.	6	4	-22
CC(=O)Nc1ccc(S(=O)(=O)Nc2cccc(NC(=O)C(C)(C)C)c2)cc1	5	-0.7	-2	3111	4	20	-9
COC(=O)[C@@H](NC(=O)NCc1ccccc1F)C(C)C	0	4.1	10	9143	8	4	-8
Cc1ccc(NC2CCCN(C(=O)c3ccnc(Cl)c3)C2)cc1C (stereo not drawn)	-10	1.6	6	5439	2	-3	-2
CC1CCC(NC(=O)CN(C)S(=O)(=O)c2cccc3cccnc23)CC1 (stereo not drawn)	16	3.2	2	3525	14	7	-14
OC(COCc1ccccc1)CN1CCCC1 (stereo not drawn)	-3	7.4	-3	10765	15	0	-18
Oc1ccc2ccccc2c1C=NCc1cn2ccsc2n1	-7	4.2	-4	10789	9	7	-9
CCC(C)N(C(=O)Cn1nc(C)c([N+](=O)[O-])c1C)C1CCS(=O)(=O)C1 (stereo not drawn)	-7	2.0	5	5685	-7	2	-4
O=C(Nc1ccc(Br)cc1Br)C1CC(=O)N(Cc2ccccc2)C1 (stereo not drawn)	9	-1.6	-5	4635	-4	-5	-7
O=C(c1ccc(F)cc1)N1CCN(c2ccccn2)CC1	-3	2.6	3	4059	-5	8	-22
Cc1cn2c(nc1=O)OC1CC2OC1CO (stereo not drawn)	-5	3.6	6	4808	5	-4	4
CC1(C)CC(=O)c2cnc(N3CCc4ccccc4C3)nc2C1	-4	3.0	5	10797	2	0	-101
O=C(c1ccc(N2CCC3(CC2)OCCO3)c([N+](=O)[O-])c1)N1CCOCC1	7	2.0	1	4646	-2	14	3
O=C(COc1ccccc1)Nc1nonc1NC(=O)COc1ccccc1	-8	4.7	-8	9874	17	5	-36
Cc1cc(C)c(S(=O)(=O)NCCc2cc3ccc(C)c(C)c3[nH]c2=O)c(C)c1	0	16	8	3222	1	-1	0
COc1ccc(-n2nnnc2SCC(=O)Nc2nnc(C)s2)cc1OC	8	7.7	12	6975	12	14	-25
COC(=O)C1=C[C@@H](C(=O)OC)[C@@H]2C3=C(C(=O)[C@]2(CC(C)C)NC(=O)c2ccccc2)[C@H](C)n2c(=O)n(-c4ccccc4)c(=O)n2[C@@H]3C1	12	.	.	4273	.	.	-35
C=CCNC(=O)N1CCC(c2nc3ccccc3s2)CC1	13	-0.5	-5	3810	-4	-7	-65
CCOc1ccccc1Oc1c(C)oc2cc(OC(=O)N3CCOCC3)ccc2c1=O	7	0.9	2	6086	-3	7	-26
CC[C@H](CO)NCCN[C@H](CC)CO	5	.	.	5911	.	.	50&-22
CCC1CCCCN1CCCNC(=O)c1ccc2c(c1)NC(=O)CN2C (stereo not drawn)	-4	.	.	5648	.	.	-7
COc1ccc(CNC(=O)CCC(=O)N2CC(C)Oc3ccccc32)cc1 (stereo not drawn)	-4	-0.1	6	5983	-5	-7	-20
CN1C(=O)[C@H]2[C@@H](C3CC3)N3C(=O)CN(Cc4ccccn4)C(=O)[C@@]3(Cc3ccccc3)[C@H]2C1=O	3	.	.	3632	.	.	-9
CSCCC(NC(=O)c1ccc(Cl)cc1)C(=O)OCC(=O)Nc1ccc(C#N)cc1 (stereo not drawn)	4	-0.9	-11	1927	0	-1	-32
CC(=NNc1nc(-c2ccccc2)cc(-c2ccc(F)cc2)n1)c1cccc(N)c1	.	-0.3	-15	.	4	7	.
O=C(COC(=O)C1CC1)NCc1ccc(Cl)cc1Cl	.	-2.8	-7	4169	0	6	-37
Cc1ccccc1NC(=O)CC1SCCNC1=O (stereo not drawn)	-1	0.8	1	2957	.	.	2
O=c1c2ccccc2nnn1Cc1ccccc1	-7	0.1	5	4835	14	12	-4
CCCNC(=O)C(Cc1ccc(F)cc1)NC(=O)c1ccccc1 (stereo not drawn)	.	1.9	-17	3977	0	1	4

Part of the list above, with two lines to a compound.
Fields: BJeLR viability | Sa RN4220 lethal | Sa ugtP lethal | Autofluor counter | Mtb hypoxia inh | Mtb hypoxia inh growth | PrP 5UTR inh
Cc1cc(C)c(S(=O)(=O)NCCc2cc3ccc(C)c(C)c3[nH]c2=O)c(C)c1
→ 0 | 16 | 8 | 3222 | 1 | -1 | 0
COc1ccc(-n2nnnc2SCC(=O)Nc2nnc(C)s2)cc1OC
→ 8 | 7.7 | 12 | 6975 | 12 | 14 | -25
COC(=O)C1=C[C@@H](C(=O)OC)[C@@H]2C3=C(C(=O)[C@]2(CC(C)C)NC(=O)c2ccccc2)[C@H](C)n2c(=O)n(-c4ccccc4)c(=O)n2[C@@H]3C1
→ 12 | . | . | 4273 | . | . | -35
C=CCNC(=O)N1CCC(c2nc3ccccc3s2)CC1
→ 13 | -0.5 | -5 | 3810 | -4 | -7 | -65
CCOc1ccccc1Oc1c(C)oc2cc(OC(=O)N3CCOCC3)ccc2c1=O
→ 7 | 0.9 | 2 | 6086 | -3 | 7 | -26

New compounds follow:
SMILES	BJeLR viability	Sa RN4220 lethal	Sa ugtP lethal	Autofluor counter	Mtb hypoxia inh	Mtb hypoxia inh growth	PrP 5UTR inh
COc1ccc(S(=O)(=O)N(CCCN2CCOCC2)Cc2ccc(OC)c(OC)c2)cc1	4	-1.1	7	2734	.	.	-3
COC(=O)C(NNc1ccccc1)(NC(=O)c1ccc(F)cc1)C(F)(F)F (stereo not drawn)	3	3.4	-6	3091	13	9	-24
Nc1ccc2c(c1)C(=O)N(c1cccc3ccccc13)C2=O	-2	1.6	0	3512	5	5	-10
CC(=O)c1sc(NC(=O)c2cc(=O)c3ccccc3o2)nc1C	-2	8.3	8	4579	-7	-2	-48
O=C(Cn1cncn1)N/N=C/c1cccnc1	-6	.	.	2957	.	.	-6
CC(C)(C)c1ccc(/C=N/NC(=S)NC2CCCCC2)cc1	-2	.	.	2044	.	.	-27
Cc1cccc(C(C)(C)C)c1OCCCCN1CCCC1	7	0.0	11	.	20	6	-5
O=C(C1=C(O)C(=O)N(Cc2ccco2)C1c1ccccc1)c1cccs1 (stereo not drawn)	-7	15	9	9365	7	11	-16
COc1cc(OC)c(N(C)S(=O)(=O)c2cccc(C(=O)Nc3nnc(C4CC4)s3)c2)cc1Cl	5	17	18	3841	-3	-9	-30
N#CCNC1CC(=O)N(c2ccccc2)C1=O (stereo not drawn)	-1	0.3	16	2922	2	1	-12
CCc1nnc(NC(=O)CS(=O)(=O)Cc2ccccc2)s1	-10	0.3	-2	3692	3	15	-3
CC(=NNC(=O)c1c(Cl)cnn1C)c1ccc(NC(=O)c2ccncc2)cc1	.	2.7	3	.	-5	2	.
CC(/C=N/NC(=O)c1nnn(-c2nonc2N)c1C(C)C)=C\c1ccccc1	5	.	.	4094	.	.	-17
COc1cc(/C=N/NC(=O)CSc2nc3ccccc3n2C)cc(OC)c1OC	-14	.	.	2301	.	.	-3
Cn1c(=O)n(CC(=O)OCc2ccccc2)c(=O)c2c1nc1n2CCCN1C1CCCCC1	4	3.0	-9	2249	.	.	-18
Cc1ccc(C)c(NC(=O)CS(=O)(=O)c2cn(C)c3ccccc23)c1	-2	-0.1	1	12875	-6	4	3
COc1ccc(C(CCN(Cc2ccc(OC)c(OC)c2)C(=O)CCl)c2ccccc2)cc1 (stereo not drawn)	85*	85*	98*	2505	12	5	-10
CC(/C=C/c1cccs1)=C\C(=O)O	-4	-0.6	-3	3999	-3	-5	-15
N/C(=N\S(=O)(=O)c1cccs1)c1ccccc1Cl	5	4.3	6	4798	1	-4	1
CCCCn1c(CN2CCN(c3cccc(Cl)c3)CC2)nc2c1c(=O)[nH]c(=O)n2C	13	5.5	-6	12895	17	6	-58
O=C(NCCCN1CCOCC1)c1ccc2c(=O)n(Cc3ccccc3)c(=S)[nH]c2c1	1	-0.6	4	3803	3	10	-10
Cc1ccc(NS(=O)(=O)c2ccc(Cl)c(C(=O)Nc3cccc(C(=O)O)c3)c2)cc1	-3	-1.4	6	4199	9	2	-17
CC1(C)Cc2ccccc2-c2nnc(-c3cccc(O)c3)n21	8	6.2	-4	2594	.	.	0
CC[N+](C)(CC)CCC(c1ccccc1)C1CCCCC1 (stereo not drawn)	3	1.2	4	6239	5	16	-13
C=CCC1(CC=C)CCCN1C(=O)CC1C(=O)NCCN1Cc1cccc(OC)c1 (stereo not drawn)	4	9.5	13	3002	-1	0	-28
Cc1cn(S(=O)(=O)c2ccc(Br)cc2)cn1	-6	3.5	-1	4247	5	11	-18
O=S(=O)(NC1CCCCC1N1CCCCC1)c1ccc(Cl)cc1 (stereo not drawn)	0	1.8	1	5791	-1	-1	-21
Cc1cccc(NC(=O)CNC(=O)COc2cc(F)ccc2[N+](=O)[O-])c1C	2	2.5	-3	3326	1	9	-18
O=C(CNC(=O)c1ccc(F)cc1)N/N=C/c1ccc(O)c([N+](=O)[O-])c1	4	.	.	2462	.	.	0
CN(CC(=O)NCCC1=CCCCC1)S(=O)(=O)c1ccc2c(c1)CCC(=O)N2	-2	-7.6	-5	4522	6	5	12

Three structures from above, sorted by SMILES length, smallest number first:
SMILES	BJeLR viability	Sa RN4220 lethal	Sa ugtP lethal	Autofluor counter	Mtb hypoxia inh	Mtb hypoxia inh growth	PrP 5UTR inh
CC(/C=C/c1cccs1)=C\C(=O)O	-4	-0.6	-3	3999	-3	-5	-15
CC(=NNC(=O)c1c(Cl)cnn1C)c1ccc(NC(=O)c2ccncc2)cc1	.	2.7	3	.	-5	2	.
COc1ccc(C(CCN(Cc2ccc(OC)c(OC)c2)C(=O)CCl)c2ccccc2)cc1 (stereo not drawn)	85*	85*	98*	2505	12	5	-10

Next results
SMILES	BJeLR viability	Sa RN4220 lethal	Sa ugtP lethal	Autofluor counter	Mtb hypoxia inh	Mtb hypoxia inh growth	PrP 5UTR inh
Cc1ccc(-c2nc3ccccc3nc2-c2ccccc2)cc1	-1	-2.2	86*	4100	3	-4	-5
O=C1CCCN1CCCNC(=S)Nc1ccccc1	-7	2.5	3	.	1	6	.
CC1(C)CC(=O)c2cnn(-c3nc4ccccc4[nH]3)c2C1	7	4.0	17	7582	7	9	-1
Cc1cc(C)cc(NC(=S)N2CCC(C(=O)c3ccc(F)cc3)CC2)c1	.	-1.0	-4	3558	0	11	-7
Cc1cc2n(n1)C(c1ccccc1)Nc1ccccc1-2 (stereo not drawn)	.	2.0	-11	16831*	3	2	-10
CCCc1cc(=O)[nH]c(SCC(=O)N2CCN(c3ccc(F)cc3)CC2)n1	0	-11	3	2539	2	0	-9
Cc1ccc(NC(=O)C2CCN(S(=O)(=O)c3c(C)noc3C)CC2)cc1C	-2	4.8	-4	4717	10	4	-32
CCOc1ccccc1NC(=O)C1CCC(=O)N1S(=O)(=O)c1ccc(C)cc1 (stereo not drawn)	2	4.4	9	3985	7	1	-12
